Source: PubChem
Mtb MenB inh: blocks the Mycobacterium tuberculosis MenB enzyme; P9WNP5; AID 540299; inhibition, %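 (about 12 µg/mL by stock and volumes)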; MenB enzyme assay, absorbance read-out; some hits fall short of the stated cut; hit rate 0.43% among 100,000;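 active = mean of two replicates above 30%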;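 note: 0% = no compound and 100% = wells with inactive enzyme; the first replicate is given; strong numbers were not always called active; inactives centre near -10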
Mtb MbtI inh: MbtI salicylate synthase inhibition | P9WFX0 | purified MbtI enzyme, fluorescence intensity read-out | inhibition, %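 (about 17 µg/mL by stock and volumes)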 | hit rate 0.89% among 100,000 | AID 493033;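 active = above 50% in both replicates, above 80% if mildly self-fluorescent; inactive = the rest, strongly fluorescent compounds included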;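 note: 0% = mean of negative and 100% = mean of positive controls; one replicate is shown; some compounds called inactive have numbers as strong as hits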
Target sequence (P9WFX0 whole entry, looked up): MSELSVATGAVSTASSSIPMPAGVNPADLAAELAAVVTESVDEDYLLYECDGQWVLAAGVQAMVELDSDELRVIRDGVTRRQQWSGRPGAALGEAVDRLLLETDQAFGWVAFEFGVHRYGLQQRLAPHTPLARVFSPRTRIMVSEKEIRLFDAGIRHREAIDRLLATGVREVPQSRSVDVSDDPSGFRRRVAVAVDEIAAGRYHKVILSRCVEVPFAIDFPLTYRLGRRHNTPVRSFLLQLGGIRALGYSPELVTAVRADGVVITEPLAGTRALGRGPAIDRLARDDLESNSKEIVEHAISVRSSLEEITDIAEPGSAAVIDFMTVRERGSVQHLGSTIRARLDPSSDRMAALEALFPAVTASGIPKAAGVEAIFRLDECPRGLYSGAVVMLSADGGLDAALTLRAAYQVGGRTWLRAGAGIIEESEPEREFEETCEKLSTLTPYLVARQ
PV pol inh: inhibitors of poliovirus RNA polymerase binding and polymerization; P03300; poliovirus polymerase elongation, fluorescence polarization; hits give low values; hit rate 0.66% among 150,000; % elongation, % (compound at 16.7 µg/mL); in the data active = % elongation below about 90%; note: some results filed as inactive read as strong as hits
Target sequence (P03300 1749-2209 limits assumed): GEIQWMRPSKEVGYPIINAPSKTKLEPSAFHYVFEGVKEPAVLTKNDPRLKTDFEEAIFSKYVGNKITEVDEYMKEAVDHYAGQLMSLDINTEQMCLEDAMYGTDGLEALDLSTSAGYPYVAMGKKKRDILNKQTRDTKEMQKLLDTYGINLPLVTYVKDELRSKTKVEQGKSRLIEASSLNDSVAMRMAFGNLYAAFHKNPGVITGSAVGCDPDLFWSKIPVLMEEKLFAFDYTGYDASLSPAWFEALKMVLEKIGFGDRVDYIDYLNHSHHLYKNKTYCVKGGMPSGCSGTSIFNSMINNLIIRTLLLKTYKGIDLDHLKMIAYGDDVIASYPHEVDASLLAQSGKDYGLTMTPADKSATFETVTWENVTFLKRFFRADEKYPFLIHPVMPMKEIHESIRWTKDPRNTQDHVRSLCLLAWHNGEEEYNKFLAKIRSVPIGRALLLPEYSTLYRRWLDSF
PV pol inh intensity: second read-out of PV pol inh, no call of its own (marks repeat the call); % elongation; measured here: total intensity read-out; formula for this scale not given here;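 total fluorescence in place of polarization; lower means less elongation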
Numbers without * were called inactive; i = inactive; x = not tested or not shown.

SMILES	Mtb MenB inh	Mtb MbtI inh	PV pol inh	PV pol inh intensity
Cc1ccc(-c2csc(/N=C/c3cc(Br)ccc3O)n2)cc1	x	2	102	97
Cn1ccc(-c2cccc(NC(=O)Nc3ccccc3)c2)n1	-3	-4	111	111
CCn1nnnc1SCC(=O)N1c2ccccc2CCc2ccccc21	-21	-24	103	101
CC1(C)CC(=O)c2cc(C#N)c(SCSc3nc4c(cc3C#N)C(=O)CC(C)(C)C4)nc2C1	-24	-5	103	101
O=C(C1CCCCC1)N1CCc2ccccc21	-20	-7	100	101
CCCCCCCn1c(=N)n(CC(=O)c2ccco2)c2ccccc21	-22	3	103	105
Cc1cc(C(=O)COC(=O)C2CC2C)c(C)n1-c1cccc(S(=O)(=O)N2CCOCC2)c1 (configuration not stated)	-18	-4	102	99
COc1ccc(CCC(=O)c2ccc3c(c2)OCCO3)cc1	-25	x	109	104
Cn1cc(C(=O)N/N=C/c2ccc3ncccc3c2)ccc1=O	-36	6	99	105
O=C(O)C1CCCCC1C(=O)NC1CCCCC1 (configuration not stated)	2	-3	102	98
CC(=O)N1c2ccc(S(=O)(=O)N3CCCC3C(=O)Nc3cccc(C)n3)cc2CC1C (configuration not stated)	-23	-17	104	102
Cn1c(SC/C([O-])=c2/sc3n(c2=O)c2ccccc2[n+]3C)nc2ccccc21	10	-12	105	97
COc1ccc(NCc2ccc3c(c2)OCO3)cc1	-5	2	100	101
CCC(c1nnc(SCc2nnc(-c3ccccc3)o2)n1Cc1ccccc1)N(C)C (configuration not stated)	-4	17	103	108
CC(C(=O)NCCCc1ccccc1)N1C(=O)C2CC=CCC2C1=O (configuration not stated)	-14	-4	104	109
Cc1cc(C)cc(-n2ccn3c(CCCC(=O)O)nnc3c2=O)c1	3	14	99	100
CS(=O)(=O)N(CC(=O)O)c1ccc(Cl)cc1	13	-3	101	100
CCc1ccc(NC(=O)CSc2ccc3nnc(-c4ccccn4)n3n2)cc1	-25	-1	103	95
O=C(Nc1cccc(C(F)(F)F)c1)C1CCN(S(=O)(=O)c2ccccc2)CC1	-12	6	102	103
CCn1c(=O)cc(SCC(=O)N(C)Cc2ccccc2)c2ccccc21	-11	-5	103	102
COc1ccc(OCC(=O)N2CCN(S(=O)(=O)c3ccc(OC)cc3)CC2)cc1	-18	-1	105	107
N#Cc1ccccc1NC(=O)CSc1ccccc1	x	-8	101	100
Cc1cc(=O)n2c(n1)NC(=NCc1ccccc1)NC2c1cccnc1 (configuration not stated)	-2	5	102	102
O=c1c2ccccc2nc(-c2ccncc2)n1-c1ccc(Cl)cc1	x	-40	102	93
S=c1nc(-c2ccccc2)n(-c2ccc(Br)cc2)c2c1CCCC2	-12	-4	104	109
Cc1nc(C)c2c(c1C(F)(F)F)-c1ccccc1C2(F)F	-21	-8	109	105
O=C(c1cc(=O)[nH]c2ccccc12)N1CCN(Cc2ccccc2)CC1	0	2	100	107
Cc1cccc(NC(=S)N2CCC(NC(=O)c3ccco3)CC2)c1	-21	6	101	102
CCOc1ccccc1N1CCN(C(=O)c2cc3c(C)cc(C)cc3[nH]2)CC1	-25	-3	102	99
CC1CCN(S(=O)(=O)N(C)C)CC1	-18	-27	100	101

Some of the entries so far, in markdown:
| smiles | Mtb MenB inh | Mtb MbtI inh | PV pol inh | PV pol inh intensity |
| --- | --- | --- | --- | --- |
| Cc1cc(=O)n2c(n1)NC(=NCc1ccccc1)NC2c1cccnc1 (configuration not stated) | -2 | 5 | 102 | 102 |
| N#Cc1ccccc1NC(=O)CSc1ccccc1 | x | -8 | 101 | 100 |

(cont.)
SMILES	Mtb MenB inh	Mtb MbtI inh	PV pol inh	PV pol inh intensity
Cc1cc(NC(=O)c2ccc(N)cc2)c(N)cc1N	7	9	101	107
COC(=O)c1ccccc1NC(=O)C(C)N1c2cccc3cccc(c23)S1(=O)=O (configuration not stated)	-11	-5	100	98
CC(C)(C)C(=O)NCc1ccc2c3c(cccc13)C(=O)N2	-42	2	97	98
O=C1C(Sc2ccccc2)=C/C(=N/S(=O)(=O)c2cccs2)c2ccccc21	-5	92	92	92
CCC(C)N(Cc1nc(N)nc(Nc2ccccc2C)n1)Cc1nc(N)nc(Nc2ccccc2C)n1 (configuration not stated)	-25	-2	102	103
O=S(=O)(c1ccccc1)c1nc(-c2cccs2)oc1NCCCn1ccnc1	-8	-45	100	102
CCOC(=O)CNc1cccc(C(=O)O)c1	-4	i	102	102
O=C1CCCC(O)=C1N=Nc1cccc(C(=O)O)c1	-457	13	93	91
CC(NC=O)c1ccc(Br)cc1 (configuration not stated)	14	-1	99	102
S=c1n(-c2ccccc2)cnn1CN1CCCCC1	-12	-9	100	101
O=c1/c(=C/c2ccccn2)sc2n1CN(c1ccccc1)CN=2	-1	-7	101	102
Cn1cc(NC(=O)N2CCc3ccccc3C2)c2ccccc21	0	55	101	102
CSc1ccc(S(=O)(=O)Nc2c(C)cc(OCC(=O)N3CCOCC3)cc2C)cc1	-27	x	96	89
CCCCNC(=O)C1CCN(Cc2cccc(OC)c2O)CC1	29	-2	96	104
O=C(Cc1cnn(-c2ccccc2)c1)c1ccc(O)c(O)c1O	-7	82*	100	100
Cc1sc2c(c1C)CSC(C(=O)NC(C)C)=C2	-33	41	101	103
O=C(/C=C/c1ccccc1Cl)Nc1ncn[nH]1	-30	x	67*	62*
CC(C)(C)NC(=O)C1N(C2CC2)C(=O)C2C(C(=O)NCc3ccccc3)C3C=CC21O3 (configuration not stated)	-37	-3	x	x
O=C(NCSc1nc2ccccc2o1)C(F)(F)F	x	5	103	108
Cc1ccc(C)c(N2CCN(C(=O)C3CCCN3S(=O)(=O)c3cccc4nsnc34)CC2)c1 (configuration not stated)	-25	-2	103	106
CCC(C)NC(=O)Nc1cccc(C)c1 (configuration not stated)	-1	-24	101	104
COc1ccc(-c2ncccc2O)cc1	-8	x	109	120
CN(C)C(=O)COC(=O)C1CCN(S(=O)(=O)c2ccccc2C(F)(F)F)CC1	13	3	98	101
CCOC(=O)c1sc2ncn3c(-c4ccc(C)cc4)nnc3c2c1C	5	0	102	105
O=C(OCC(=O)N(CC1CCCO1)c1nc(-c2ccc(Br)cc2)cs1)c1ccco1 (configuration not stated)	0	-8	106	113
CN1CCC(N(C)C(=O)c2cc(Cl)cc(Cl)c2)CC1	x	4	101	104
Cc1ccc(SCC(=O)NN=C2CCN(C)CC2)cc1	8	-5	100	103
CC(C)N(C(=O)Cn1c2ccccc2c2nc3ccccc3nc21)c1ccccc1	2	-6	100	101
O=C(CN1C(=O)c2cccc3cccc1c23)NC1CCCC1	-48	-8	102	103
O=c1n(-c2ccc(F)cc2)nc2n1CCCN2	1	-2	100	106
O=C(Cc1csc(NC(=O)Nc2ccc(Cl)cc2)n1)NCc1ccco1	-3	-1	100	110
CC(c1ccccc1)N1CCC(c2nc3ccccc3[nH]2)CC1 (configuration not stated)	6	-3	102	102
NC(=O)C[n+]1ccn2c(NC3CCCCC3)c(-c3ccc(N4CCOCC4)cc3)nc2c1	-69	3	123	150
CCC(CO)Nc1ncnc2onc(C)c12 (configuration not stated)	-30	8	105	98
CC(C)CSc1nnc(CSCc2nc(-c3ccc(Cl)cc3)cs2)n1C	-16	-5	106	110
COC(=O)C1=C(C(F)(F)F)OC(C)=C(C#N)C1c1ccccc1-c1ccccc1 (configuration not stated)	-25	x	106	109
CC(C)C(C(=O)Nc1ccc(S(=O)(=O)Nc2ncccn2)cc1)N1C(=O)c2ccccc2C1=O (configuration not stated)	-25	0	103	103
Clc1ccccc1-c1nnc2cccc(Cl)n12	-4	x	99	114
O=C(OCCN1C(=O)c2ccccc2C1=O)c1cc2ccccc2o1	-24	-1	98	102
CC(C)NC(=O)C(C)n1c2ccccc2c2cn[nH]c(=O)c21 (configuration not stated)	-13	88	101	103
CCc1ccc(N2C(=O)C3N=NN(CCc4ccc(OC)cc4)C3C2=O)cc1 (configuration not stated)	-12	14	102	104
COC(=O)c1cccnc1NC(=S)NC(C)C	-3	12	103	101
N/C(=N/c1nc2ccccc2o1)NC(=O)/C=C/c1ccccc1	-23	8	100	101
O=C(CCC1CCCC1)N1CCN(CC2CC=CCC2)CC1 (configuration not stated)	-12	x	104	102
O=CNCCc1nc2ccccc2n1Cc1ccccc1	2	-20	100	101
CCCC(C(=O)NCc1ccccn1)N1Cc2ccccc2C1=O (configuration not stated)	-30	-2	103	101
Cc1ccc2c(N)c(C(=O)c3ccc4c(c3)OCCO4)sc2n1	-83	-13	106	102
CCS(=O)(=O)/N=C(\N)c1ccccc1	x	-1	106	99
O=C1CCc2cc(S(=O)(=O)NCc3ccccc3)cc3c2N1CCC3	-12	2	106	97
CCCN(CCC)S(=O)(=O)c1ccc(C(=O)NC2=C(C(=O)OC)SCC2)cc1	1	-2	101	103
O=c1cccc2n1CC1CC2CN(CC(O)/C=N/n2cnnc2)C1 (configuration not stated)	-13	x	91	94
CC1C(=O)Nc2ccc(-c3csc(N)n3)cc21 (configuration not stated)	-4	14	97	100
CC(=O)Nc1ccc(Oc2ncnc3sccc23)cc1	2	-3	103	115
CC1CN(c2ccc(NC(=S)N3CCSCC3)cc2)CC(C)O1 (configuration not stated)	-38	10	102	103
Cc1c(CC(=O)O)c(=O)oc2c(O)c(O)ccc12	18	x	107	118
CCC(CC)C(=O)Nc1c[nH]c(=O)[nH]c1=O	-41	-6	101	103
O=C(C1CC1)N1CCc2cc(S(=O)(=O)NCCCN3CCCCC3)ccc21	-15	1	101	97
Cc1nn(-c2cc(N3CCOCC3)ccc2N)c(=O)c2ccccc12	12	11	100	101
Cc1cc(Cl)nc(Cl)c1C(=O)NC(=O)NCc1ccccc1	-25	x	109	112
Cc1ccc(C(=O)ONc2ccc(N=O)cc2)cc1	-55	-4	101	104

Shown with two lines to a compound: entries from further up
Values run as follows: Mtb MenB inh, Mtb MbtI inh, PV pol inh, PV pol inh intensity
- Cc1ccc(-c2csc(/N=C/c3cc(Br)ccc3O)n2)cc1
 : x, 2, 102, 97
- Cn1ccc(-c2cccc(NC(=O)Nc3ccccc3)c2)n1
 : -3, -4, 111, 111
- CCn1nnnc1SCC(=O)N1c2ccccc2CCc2ccccc21
 : -21, -24, 103, 101
- CC1(C)CC(=O)c2cc(C#N)c(SCSc3nc4c(cc3C#N)C(=O)CC(C)(C)C4)nc2C1
 : -24, -5, 103, 101
- O=C(C1CCCCC1)N1CCc2ccccc21
 : -20, -7, 100, 101
- CCCCCCCn1c(=N)n(CC(=O)c2ccco2)c2ccccc21
 : -22, 3, 103, 105
- Cc1cc(C(=O)COC(=O)C2CC2C)c(C)n1-c1cccc(S(=O)(=O)N2CCOCC2)c1 (configuration not stated)
 : -18, -4, 102, 99
- COc1ccc(CCC(=O)c2ccc3c(c2)OCCO3)cc1
 : -25, x, 109, 104
- Cn1cc(C(=O)N/N=C/c2ccc3ncccc3c2)ccc1=O
 : -36, 6, 99, 105
- O=C(O)C1CCCCC1C(=O)NC1CCCCC1 (configuration not stated)
 : 2, -3, 102, 98
- CC(=O)N1c2ccc(S(=O)(=O)N3CCCC3C(=O)Nc3cccc(C)n3)cc2CC1C (configuration not stated)
 : -23, -17, 104, 102
- Cn1c(SC/C([O-])=c2/sc3n(c2=O)c2ccccc2[n+]3C)nc2ccccc21
 : 10, -12, 105, 97
- COc1ccc(NCc2ccc3c(c2)OCO3)cc1
 : -5, 2, 100, 101
- CCC(c1nnc(SCc2nnc(-c3ccccc3)o2)n1Cc1ccccc1)N(C)C (configuration not stated)
 : -4, 17, 103, 108
- CC(C(=O)NCCCc1ccccc1)N1C(=O)C2CC=CCC2C1=O (configuration not stated)
 : -14, -4, 104, 109
- Cc1cc(C)cc(-n2ccn3c(CCCC(=O)O)nnc3c2=O)c1
 : 3, 14, 99, 100
- CS(=O)(=O)N(CC(=O)O)c1ccc(Cl)cc1
 : 13, -3, 101, 100
- CCc1ccc(NC(=O)CSc2ccc3nnc(-c4ccccn4)n3n2)cc1
 : -25, -1, 103, 95
- O=C(Nc1cccc(C(F)(F)F)c1)C1CCN(S(=O)(=O)c2ccccc2)CC1
 : -12, 6, 102, 103
- CCn1c(=O)cc(SCC(=O)N(C)Cc2ccccc2)c2ccccc21
 : -11, -5, 103, 102
- COc1ccc(OCC(=O)N2CCN(S(=O)(=O)c3ccc(OC)cc3)CC2)cc1
 : -18, -1, 105, 107
- N#Cc1ccccc1NC(=O)CSc1ccccc1
 : x, -8, 101, 100
- Cc1cc(=O)n2c(n1)NC(=NCc1ccccc1)NC2c1cccnc1 (configuration not stated)
 : -2, 5, 102, 102
- O=c1c2ccccc2nc(-c2ccncc2)n1-c1ccc(Cl)cc1
 : x, -40, 102, 93

Following part.
SMILES	Mtb MenB inh	Mtb MbtI inh	PV pol inh	PV pol inh intensity
COC(=O)CSc1nc(N2CCOCC2)nc(N2CCOCC2)n1	-1	3	101	100
c1ccc(COCC(CSc2ccccc2)OCc2ccccc2)cc1 (configuration not stated)	-24	x	96	89
Cc1cc(C)n2c(SC(CNS(=O)(=O)c3ccccc3)c3ccccc3)nnc2n1 (configuration not stated)	-22	-5	102	102
c1ccc(OCCOc2ncnc3ccccc23)cc1	10	84	101	105
CCN(C(=O)CN1CCCCC1)c1c(N)n(Cc2ccccc2)c(=O)[nH]c1=O	9	15	106	102
COc1ccc2c(c1C)OC(C)(C)CC2=O	-2	22	99	94
CC1(C)Cc2cccc(C(=O)N3CCC(c4c[nH]c5ccccc45)CC3)c2O1	-17	-15	104	113
COC(=O)Cc1c(C)c2ccc(OCC(=O)c3ccc(N4CCCC4)cc3)cc2oc1=O	-14	-14	101	103
Cc1cc(-c2ccc(C)c(S(=O)(=O)NCc3cccnc3)c2)on1	2	-7	100	101
N#CCC12CC3CC(CC(C3)C1)C2	-26	x	105	100
